miR-21 FLuc = raises the signal of a miR-21 reporter | 340,000 tested, under 10 active | HeLa miR-21 FLuc reporter, luciferase, 48 h | Potency, µM (doses to about 38.3 µM), inactives show at the top dose reporter change, positive = more light; active = well fitted rising curve with a large enough effect; inconclusive = small, poorly fitted or top-dose-only effect; inactive = no such curve, though single readings can be large or run the other way;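 note: % of control where 0% means no effect; miR-21 action dims this reporter so a rising signal means less miR-21 action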
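HeLa cells stably expressing CMV-driven firefly luciferase with a downstream miR-21 binding sequence, endogenously expressing miR-21, were treated with titrations (up to about 40uM final) for 48 hours at 37 degree Celsius. Luciferase luminescence was read after lysis.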
GLA inh pH 4.5 = blocks human alpha-galactosidase A at pH 4.5 | purified enzyme, 4-MU-alpha-Gal fluorescence, pH 4.5 | AID 1467 | 230,000 tested, under 10 active | activity change, negative = inhibition, % at 105 µM; inconclusive = small, poorly fitted or top-dose-only inhibition, or a rising curve; inactive = flat fitted curve, though single readings scatter; no compound was filed as active;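 note: 0% = full activity with enzyme and -100% = basal without enzyme; dose as in the result columns while the protocol names 77 µM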
Target sequence (P06280 whole entry, looked up): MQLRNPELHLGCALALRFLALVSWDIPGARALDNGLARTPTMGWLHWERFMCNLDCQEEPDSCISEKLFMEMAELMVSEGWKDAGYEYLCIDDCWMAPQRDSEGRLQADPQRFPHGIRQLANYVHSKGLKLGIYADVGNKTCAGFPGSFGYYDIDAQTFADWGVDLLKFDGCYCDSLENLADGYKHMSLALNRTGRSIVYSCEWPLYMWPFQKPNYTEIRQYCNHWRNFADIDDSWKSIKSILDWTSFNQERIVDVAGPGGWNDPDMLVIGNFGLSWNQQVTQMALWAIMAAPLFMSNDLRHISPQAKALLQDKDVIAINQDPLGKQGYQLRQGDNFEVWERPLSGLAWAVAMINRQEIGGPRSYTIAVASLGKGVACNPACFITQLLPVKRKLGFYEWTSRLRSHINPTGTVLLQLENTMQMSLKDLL
Rango-impB inh = Rango-importin beta binding inhibition. Q14974. Rango CFP/YFP FRET sensor + importin beta, 45 min. Potency, µM (top dose mostly 92.2 µM), for inactives: top-dose inhibition of complex formation. 340,000 compounds, 0.031% hits. AID 540263; active = rising FRET ratio curve, often small or poorly fitted; inconclusive = mostly compound fluorescence or quenching in the first reads; inactive = flat curves in all reads;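 note: potency is the fitted concentration of half-maximal effect; 0% = DMSO wells and 100% = buffer wells lacking importin beta; nearly all actives have a fitted effect of over 15% in size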
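Inhibition scored from the CFP 486 nm/YFP 530 nm FRET ratio 45 min after adding 0.125 microM importin beta to 50 nM Rango biosensor preincubated 5 min with compound (room temperature, PBS with DTT, Tween-20, BSA). No-importin wells as positive control.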
Rango dissoc inh = inhibition of RanGTP-driven Rango-importin beta dissociation. O95149+P62826. Biochemical FRET Rango-importin beta, RanGTP-induced dissociation. Potency, µM (titrated, usually from 46.1 µM), for inactives: top-dose activity change, negative = inhibition. 340,000 compounds, 0.071% hits; active means falling FRET ratio curve, often poorly fitted, with flat reads before Ran was added; inconclusive means other falling curves, or compound fluorescence or quenching; inactive means flat or rising ratio curve;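 note: potency is the fitted concentration of half-maximal effect; % of control where 0% means no effect; nearly all actives have a fitted effect of over 45% in size; -100% = wells without RanGTP and RCC1; the record marks most hits as doubtful in a second field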
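Recombinant Rango FRET biosensor (EYFP–snurportin 1 IBB–cerulean CFP10) at 0.1 uM premixed with 0.25 uM importin beta in PBS, 1 mM DTT, 0.02% Tween-20, 0.1% BSA. Compound added 5 min; RanGTP-RCC1 (0.6 uM Ran, 2 mM GTP, 0.2 uM RCC1) then triggers release, read at 45 min.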
Starred values were filed as active, the others as inactive; ? = inconclusive; . = no result given. Some of the compounds tested. The share of hits here may be higher or lower than overall.

SMILES | miR-21 FLuc | GLA inh pH 4.5 | Rango-impB inh | Rango dissoc inh
Cn1cnc(C(F)(F)F)c1-c1ccc([N+](=O)[O-])cc1 | -5% | 3 | 1.1% | 0%
Cc1nc2cc3nc(C(F)(F)F)[nH]c3cc2[nH]1 | -19% | 2 | -0.9% | -12%
COc1ccc(-c2sc3ccccc3c2-c2ccc(OCCN3CCCCC3)cc2)cc1 | . | . | 3.8% | -1%
Cc1ccnc(NC(=O)/C=C/c2cccs2)c1 | -1% | 1 | 0.0% | ?
CCN(CC(=O)Nc1ccc(NC(C)=O)cc1)C(=O)/C=C/c1ccccc1 | . | . | -2.4% | -4%
N#Cc1ccc(NC(=O)CN2C(=O)NC3(CCCC3)C2=O)cc1 | -4% | . | 0.1% | 7%
CCC(C)NC(=O)CSc1ncccc1C(=O)O (centres undefined) | 1% | -26 | 4.8% | 16%
C[N+](C)(C)C[C@H](O)CC(=O)O | . | . | -2.2% | 0%
CCOC(=O)c1c(S(=O)(=O)N2CCC(C)CC2)c(C)n(C)c1C | -2% | . | ? | -18%
Cc1ccccc1CN1C[C@@H]2C[C@@H](c3cn(C)nc3-c3ccccc3)N3CCC[C@@]23C1=O | -3% | -7 | ? | 9%
CCC(=O)c1cc(F)ccc1OCC(=O)N1CCN(c2ccc(F)cc2)CC1 | 15% | 3 | -0.3% | -2%
CC(C)(C)NC(=O)C(c1ccccn1)N(C(=O)C1CSC(=O)C1)c1ccccc1F (centres undefined) | -3% | 7 | -3.1% | -5%
N#Cc1ccccc1OCC(=O)Nc1cccc(S(=O)(=O)N2CCCCCC2)c1 | . | . | -0.4% | -4%
Cc1ccc(C(=O)N2CCCCC2)cc1S(=O)(=O)N1CCOCC1 | 2% | . | -0.2% | 7%
COCc1nnc(NC(=O)CC(C)c2ccccc2)s1 (centres undefined) | -10% | 0 | 3.1% | 23%
O=C(NCc1ccco1)c1cccn2c(=O)c3sccc3nc12 | . | . | -0.7% | -3%
OCCNc1ncnc2c1cnn2Cc1ccccc1 | -3% | . | -1.9% | -3%
Cc1csc(NC(=O)c2cccnc2)n1 | -19% | . | 0.2% | -6%
Oc1ccc(/C=N/Nc2cc(N3CCOCC3)nc(N3CCOCC3)n2)cc1 | . | . | -2.8% | 21%
Cc1ccc(C)c(OCCCC(=O)O)c1 | -3% | 3 | 0.1% | 11%
COc1ccc2cc(CCNC(=O)C(C)C)c(=O)[nH]c2c1 | -15% | 7 | -3.0% | 11%
CN(C(=O)/C(N=Nc1cccc(C(F)(F)F)c1)=C(\O)C(F)(F)F)c1ccccc1 | 21% | -12 | 0.4% | 6%
CC(C)N(C(=O)C1CC(=O)OC12CCCCC2)C(C)C (centres undefined) | -1% | 3 | -5.5% | 14%
Cc1csc(=O)n1CCC(=O)OC(C)C(=O)NCc1ccccc1 (centres undefined) | . | . | 0.5% | -8%
CCOC(=S)N/C(=N\S(C)(=O)=O)c1ccccc1 | -4% | 8 | 8.0% | -3%
Cc1cc(-c2cc(-c3ccccc3)on2)nc(NCC2CC2)n1 | -10% | 1 | 0.5% | 1%
CCN(c1ccccc1)S(=O)(=O)c1ccc(C(=O)N(C)CCc2ccc(OC)c(OC)c2)cc1 | -11% | . | -1.6% | 4%
CCOC(=O)C1(Cc2ccccc2C)CCCN(C(=O)c2ccc(OC)o2)C1 (centres undefined) | 8% | . | -0.5% | -2%
O=C(Nc1cccc(-c2csc(Nc3ccccc3)n2)c1)c1cc([N+](=O)[O-])cc(C(F)(F)F)c1 | -9% | . | 5.9% | 12%
CC(=O)N1CCN(C(=S)c2cccc([N+](=O)[O-])c2)CC1 | 1% | -8 | 3.1% | 11%
Cc1ccc(O)c(NC(=O)c2cc(-c3ccco3)on2)c1 | -80% | . | 0.4% | -1%
COc1cc(/C=N\NC(=O)c2ccc(C)nc2)ccc1OC(=O)c1cccc(F)c1 | -1% | . | -3.4% | 0%
Cc1cc2cc(C#N)c(NCCNC(=S)NCCCN3CCOCC3)nc2cc1C | -26% | 7 | ? | ?
COc1cc(C(Nc2ccc(S(=O)(=O)NCC3CCCO3)cc2)C(=O)NC(C)(C)C)cc(OC)c1OC (centres undefined) | 0% | 1 | 0.6% | -15%
COc1c2c(nc3occc13)C(CC=C(C)C)(OC)C(O)CC2 (centres undefined) | -6% | -14 | 0.0% | 0%
S=C(c1cn(Cc2ccccc2)c2ccccc12)N1CCOCC1 | -6% | 0 | -7.0% | -17%
O=S(=O)(NC1CC1)c1ccc(S(=O)(=O)N2CCC3(CC2)OCCO3)cc1 | 0% | 7 | 4.3% | 18%
Cc1nn(C(=O)c2ccco2)c(C)c1CN1C(=O)c2ccccc2C1=O | -5% | -6 | -0.2% | -1%
CCOc1ccc(CN2CCC(n3nccc3NC(=O)CCCc3ccccc3)CC2)cc1 | 11% | . | 1.6% | -2%
CC[C@@H](C)[C@H](NC(=O)OCc1ccccc1)c1nnc([C@@H](NC(=O)OCc2ccccc2)[C@@H](C)CC)o1 | 5% | 0 | 4.7% | 0%
Cc1ccc(C(=O)CCNc2ccc(F)c(Cl)c2)o1 | -11% | -4 | 0.9% | 3%
C=CCNc1nc(Cl)nc(Nc2cc(Cl)ccc2OC)n1 | 2% | . | -2.0% | 1%
CCC1CCCCN1CCCNC(=O)C1CCN(S(=O)(=O)N2CCC3(CC2)OCCO3)CC1 (centres undefined) | ? | . | -3.3% | 3%
CCOc1cc2[nH]c(=S)n(Cc3ccc(C(=O)NCC(OC)OC)cc3)c(=O)c2cc1OCC | 0% | 5 | 5.6% | 2%
CCc1ccc(C(C)NC(=O)C2CCCC2)cc1 (centres undefined) | 1% | . | -2.3% | -8%
CC(NC(=O)COC(=O)CN1C(=O)NC2(CCCC2)C1=O)c1ccc(F)cc1 (centres undefined) | . | . | 0.5% | -7%
Nc1nnc(SCC(=O)OCc2ccc(Cl)c(Cl)c2)s1 | 4% | 5 | -2.4% | 2%
COc1ccc2[nH]c3c(=O)n4c(nc3c2c1)SCC4 | -5% | 9 | 0.3% | -4%
Cc1ccc(NC(=O)c2nc[nH]c2C(=O)N2CCOCC2)c(C(=O)c2ccccc2)c1 | -5% | 9 | 4.1% | -6%
COCCn1c(SCC(=O)Nc2cccc(OC)c2)nnc1-c1ccccc1 | -8% | -3 | -1.9% | -11%
Going on with the list.
SMILES | miR-21 FLuc | GLA inh pH 4.5 | Rango-impB inh | Rango dissoc inh
O=C(CNS(=O)(=O)c1cccc(Cl)c1)Nc1ccc(-c2nc3ccccc3s2)cc1 | -54% | 1 | 1.5% | -12%
CC(C)N(Cc1nc(-c2ccccc2)no1)C(=O)c1ccc([N+](=O)[O-])cc1 | ? | -22 | -2.6% | -3%
CCCOc1ccc2oc(=O)c3c(c2c1)CCCN3C(=O)CN1CCN(C(=O)c2ccco2)CC1 | -1% | 3 | . | .
Cn1cc(CN2CCC(n3nccc3NC(=O)c3ccccc3Cl)CC2)c2ccccc21 | -2% | . | -2.2% | 10%
Cc1ccccc1OCCNC(=O)CSc1ccc(C(F)(F)F)cc1[N+](=O)[O-] | -2% | 1 | 0.0% | 21%
O=C(O)CSc1nnc(Cc2ccccc2)n1-c1ccccc1 | -5% | -6 | -0.1% | 0%
COc1ccc(NC(=O)/C=C/C(=O)O)c([N+](=O)[O-])c1 | -3% | -3 | 0.4% | 0%
CCOc1ccc(-c2[nH]ncc2-c2ccc(Cl)cc2)c(O)c1 | 5% | . | 0.2% | 0%
Cc1ccc(C(=O)NCCc2ccccc2)cc1N1CCCC1=O | -16% | . | 2.6% | 17%
COc1ccc(NC(=O)CN2CCN(C(C)=O)CC2)cc1S(=O)(=O)N1CCOCC1 | . | . | 0.0% | 18%

Some of these compounds in order of their number in miR-21 FLuc, high to low.
SMILES | miR-21 FLuc | GLA inh pH 4.5 | Rango-impB inh | Rango dissoc inh
CC[C@@H](C)[C@H](NC(=O)OCc1ccccc1)c1nnc([C@@H](NC(=O)OCc2ccccc2)[C@@H](C)CC)o1 | 5% | 0 | 4.7% | 0%
Nc1nnc(SCC(=O)OCc2ccc(Cl)c(Cl)c2)s1 | 4% | 5 | -2.4% | 2%
Cc1ccc(C(=O)N2CCCCC2)cc1S(=O)(=O)N1CCOCC1 | 2% | . | -0.2% | 7%
O=S(=O)(NC1CC1)c1ccc(S(=O)(=O)N2CCC3(CC2)OCCO3)cc1 | 0% | 7 | 4.3% | 18%
CCCOc1ccc2oc(=O)c3c(c2c1)CCCN3C(=O)CN1CCN(C(=O)c2ccco2)CC1 | -1% | 3 | . | .
OCCNc1ncnc2c1cnn2Cc1ccccc1 | -3% | . | -1.9% | -3%
CCN(c1ccccc1)S(=O)(=O)c1ccc(C(=O)N(C)CCc2ccc(OC)c(OC)c2)cc1 | -11% | . | -1.6% | 4%

Later entries.
SMILES | miR-21 FLuc | GLA inh pH 4.5 | Rango-impB inh | Rango dissoc inh
CCCCC(c1nnnn1CCOC)N1CCN(CC)CC1 (centres undefined) | -6% | -1 | -1.0% | 11%
COc1ccc(OC)c(-n2c(-c3cc(-c4ccccc4)n[nH]3)n[nH]c2=S)c1 | -19% | 0 | -1.8% | 10%
O=c1cc(-c2ccccc2)[nH]c2cc(F)ccc12 | -1% | 4 | 1.4% | -7%
Cc1cnn(C(=O)c2cc(-c3ccccc3)nc3ccccc23)c1 | -12% | -5 | ? | -5%
COc1ccccc1CNC(=O)COC(=O)COc1ccccc1F | . | . | -3.3% | -4%
CCNC(=S)Nc1ccc2c(c1)oc1ccccc12 | . | . | -4.3% | 16%
O=C(Nc1cccn(Cc2ccccc2)c1=O)NC1CCCCC1 | -13% | -8 | -1.2% | 9%
O=C(c1ccco1)N1CCN(c2ccc(Cl)c(Cl)c2)CC1 | . | . | 1.5% | 5%
COc1cccc(C(=O)Nc2ccc(NC(C)=O)cn2)c1 | -37% | 3 | -2.0% | -8%
O=C1NCCN1CCNS(=O)(=O)c1ccc(F)c(Cl)c1 | -1% | -4 | 1.2% | 3%
O=C(Cc1ccc([N+](=O)[O-])cc1)N/N=C/c1cccnc1 | . | . | 1.3% | -10%
CCC1=[N+](CC(=O)c2ccc(Br)cc2)CCn2c(C)ccc21 | -35% | -7 | ? | ?
C=C(C)C(=O)N1CC2(CC(c3cccc(NC(=O)CCCCC)c3)=NO2)C[C@H]1C(N)=O (some centres undefined) | -3% | 2 | 0.6% | -3%
Cc1ccc(CNC(=O)C2CCCN(c3nc(C)cc(C)n3)C2)cc1 (centres undefined) | -1% | 10 | ? | -28%
CCCOc1ccc(-c2nnn(CC(=O)c3ccc4c(c3)OCCO4)n2)cc1 | -4% | -3 | -4.4% | -4%
CCOC(=O)/C=C1/SCC(=O)N1CCOc1cccc(Br)c1 | . | . | -1.3% | -11%
N#Cc1ccc(C(c2nnnn2Cc2ccccc2)N2CCCC2)cc1 (centres undefined) | 0% | 5 | -0.4% | 2%
CCOc1cc2[nH]c(=S)n(CCCN3CCN(C)CC3)c(=O)c2cc1OCC | . | . | -5.7% | 8%
COc1ccc(CC(=O)NNC(=O)Cc2ccc(OC)cc2)cc1 | 0% | 6 | . | .
C=C(C)CN(CC)C(=O)c1ccc(OC2CCN(S(=O)(=O)N(C)C)CC2)cc1 | -5% | -4 | -0.6% | -3%
Cc1ccc(-c2nnc(NC(=O)c3ccco3)o2)c(C)c1 | . | . | 4.2% | -20%
O=C(OCC(=O)c1ccccc1Cl)C1=NN(c2ccccc2)C(=O)CC1 | . | . | 0.2% | 7%
CCOC(=O)C1C(c2ccc([N+](=O)[O-])cc2)C2C(=O)NN=C2CC1(C)O (centres undefined) | -3% | -12 | -2.5% | -21%
COC(=O)c1c(N)n(CCCN2CCOCC2)c2nc3ccccc3nc12 | 2% | ? | ? | ?
Cc1ccc(S(=O)(=O)NCCC(=O)OCC(=O)Nc2cccc(S(=O)(=O)NC3=NCCCCC3)c2)cc1 | -1% | 9 | 1.3% | -13%
COc1ccc(N2CCN(c3ccc(S(=O)(=O)N(C(C)C)C(C)C)cn3)CC2)cc1 | 1% | . | 2.0% | 15%
O=C1c2ccccc2NC(c2ccc(Cl)cc2Cl)N1Cc1ccccc1 (centres undefined) | 5% | -5 | -3.1% | 1%
